# HPGD block: blocks human HPGD enzyme activity. 4.3% of 150,000 active. P15428. Potency, µM, for inactives: at the highest dose activity change, negative = inhibition, actives largely listed as inhibitors. purified HPGD, NADH fluorescence kinetic, PGE2 substrate. AID 894; active = well fitted inhibition curve with a large enough effect (not every such curve was filed as active); inconclusive = small, poorly fitted or top-dose-only effect, or another doubt; inactive = no such curve, though single readings can be large or run the other way;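 note: top concentration of the series not given in the record; plate controls included wells without enzyme; inactives centre near -10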
# Target sequence (P15428 whole entry, looked up): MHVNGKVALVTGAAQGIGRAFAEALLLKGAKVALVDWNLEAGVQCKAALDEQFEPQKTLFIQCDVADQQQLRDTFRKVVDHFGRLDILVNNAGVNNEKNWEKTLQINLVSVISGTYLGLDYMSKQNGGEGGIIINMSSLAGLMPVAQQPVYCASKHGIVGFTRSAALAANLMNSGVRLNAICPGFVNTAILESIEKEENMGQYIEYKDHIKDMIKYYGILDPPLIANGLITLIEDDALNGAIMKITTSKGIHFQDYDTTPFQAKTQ
#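 20 nM HPGD preincubated 15 min at room temperature with compound in 50 mM Tris-HCl pH 8, 0.01% Tween 20. Started with 1 mM NAD+ and 30 uM prostaglandin E2; NADH fluorescence (360/450 nm) read 5 times over 30-s intervals, last minus first.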
# Numbers without * were called inactive; ? = inconclusive; & = joins results of further samples. % is set by controls: 0 for no effect and ±100 for the full control effect; potency is the fitted concentration of half-maximal effect. The list is partial; count on the stated rates, not on these rows.
molecule	HPGD block
Cc1cc(NC(=O)c2c([N+](=O)[O-])c(C)nn2C)no1	2%
CC(CCN(C)C)OC(=O)c1ccc(C(C)c2ccccc2)o1 (stereo not drawn)	-6%
O=C(NC1CCCCCC1)C(=O)NC1CCCC1	-1%
COc1ccc(CCNC(=O)c2[nH]c(C)c(C(C)=O)c2C)cc1OC	-4%
O=C(c1ccco1)N1CCN(c2nnc(-c3ccccc3)c3ccccc23)CC1	-6%
CCN(C(=O)Cc1cccs1)c1nnc(-c2cccnc2)s1	-13%
CC(=O)NC1=NN(C(C)=O)C(C)(CCS(=O)(=O)c2ccc(Br)cc2)S1 (stereo not drawn)	-5%
COc1ccc(-c2nnc(SCC(=O)Nc3ncc(C(F)(F)F)cc3Cl)n2CC(C)C)cc1	0%
NS(=O)(=O)c1cc(C(=O)O)c(Cl)c([N+](=O)[O-])c1Cl	7%
COc1ccccc1OCc1nc(C#N)c(N2CC(C)CC(C)C2)o1 (stereo not drawn)	-17%
COC(=O)/C=C1\C(=O)N(c2nc3ccc(OC)cc3s2)C(=S)N1c1ccc(F)cc1	-6%
CC1CCc2c(sc3nc4n(c(=O)c23)CCS4)C1 (stereo not drawn)	-13%
CCCCOCCCNS(=O)(=O)Cc1ccccc1	?
COCCN(C(=O)COc1ccc(Cl)cc1)c1nnc(-c2cccnc2)s1	-15%
CCOC(=O)c1sc(NC(=O)CSc2nnc(-c3ccc(OC)cc3)n2CCOC)nc1C	-22%
CC(C)C1(C)C(=O)N=C2c3ccccc3C(=O)N21 (stereo not drawn)	2%
O=C(COC(=O)c1cc(Cl)ccc1[N+](=O)[O-])Nc1cccc2ccccc12	-23%
COc1ccc(-n2c(SCC(=O)NCc3ccco3)nnc2-c2c[nH]c3ccccc23)cc1	-3%
COc1cccc(C2=CC(c3cccs3)n3nnnc3N2)c1 (stereo not drawn)	-5%
O=C(N/N=C/c1cccc([N+](=O)[O-])c1)c1ccc(CN2CCOCC2)cc1	-18%
Cc1nnnn1CC(=O)Nc1ccccc1[N+](=O)[O-]	-3%
CC(=O)Nc1nc2ccc(-c3nc4ccccc4o3)cc2s1	?
O=C1CC(c2ccc3c(c2)OCO3)c2ccc(O)cc2O1 (stereo not drawn)	-3%
Cc1c(NC(=O)C2C3C=CC(C3)C2C(=O)O)c(=O)n(-c2ccccc2)n1C (stereo not drawn)	-4%
CCC(=O)Nc1cc2nn(-c3ccccc3)nc2cc1Cl	?
Cc1cc(C)n(Cc2ccc(F)cc2)c(=O)c1C#N	-22%
CCCCC(=O)Nc1ccc(NC(=O)C2CC2)nc1	-10%
Cc1nc2c(C(=O)NCCC(C)C)c[nH]n2c(=O)c1Cl	?
Cc1ccc(-n2c(-c3cc(C)n(C)n3)n[nH]c2=S)cc1	-28%
Fc1ccc(F)c(C2=NNC(=Nc3ccccc3F)SC2)c1	16µM*
CC(C)(NO)/C(=N\O)c1ccc(Cl)cc1	1%
OCC(O)CO	-2%&-2%
COC(=O)Nc1nc2ccc(Sc3ccccc3)cc2[nH]1	-12%&-7%&-2%
Cc1ccc(-c2nc3cnccn3c2Nc2ccc3c(c2)OCO3)cc1	-27%
CC(C)(C)c1ccc(-c2conc2N)cc1	-12%
COc1ccc(/C=C/C(=O)Nc2cc(=O)n(C)c(=O)n2C)cc1	-28%
Cc1cccc(NC(=S)N/N=C/c2ccc3c(c2)OCO3)c1	?
NO	-3%
Cc1cc(NC(=O)CSc2nnc(Cc3cccn3C)n2CCc2ccccc2)no1	-7%
CCc1[nH]nc2c1C(c1ccncc1)C(C#N)=C(N)O2 (stereo not drawn)	-6%
COc1cc(/C=N/NC(=O)/C(=C/c2ccccc2)CCO)ccc1O	-3%
O=C(O)c1cccc2cccnc12	-5%
COC(=O)C1=C(C)NC(=O)C1(NS(=O)(=O)c1ccc(NC(C)=O)cc1)C(F)(F)F (stereo not drawn)	-5%
O=C(c1ccccc1)c1ccc(OCCn2cnc3ccccc3c2=O)cc1	4.5µM*
CCn1c(N2CCN(C(=S)NCCc3ccccc3)CC2)nc2ccccc21	-9%
Cn1c(SCC(=O)NCCc2ccccc2)nnc1-c1ccncc1	-13%
O=C(/C=C/c1ccccc1)Nn1c(-c2cccs2)nc2ccccc2c1=O	-12%
COCc1nnc(NC(=O)c2ccc(NC(C)=O)cc2)s1	-25%
COC(=O)[C@H]1[C@H](CCc2ccccc2)NC(=O)N(Cc2ccccc2)[C@@H]1C	0%
COc1cccc(NC(=O)C(Sc2nnc3ccccn23)c2ccccc2)c1 (stereo not drawn)	-1%
CCOC(=O)C1CCCN(c2nc3ccccc3nc2C(C#N)C(=O)OCCOC)C1 (stereo not drawn)	-18%
CC1(C)C(=O)Nc2ccccc2N1C(=O)COc1ncnc2ccccc12	-11%
O=C(Cn1ncn2c(cc3ccccc32)c1=O)NCCC1=CCCCC1	-1%
COC(=O)C1=C(C)NC(C)=C(C(=O)OC(C)C)C1c1cccc2nonc12 (stereo not drawn)	-10%
CNC(=S)N/N=C/c1cn(CCOc2ccccc2OC)c2ccccc12	-15%
O=S1(=O)CCN=C2SC3=C(CCCC3)N21	-9%

# New compounds follow:
molecule	HPGD block
O=C(Nc1ccc(N2CCOCC2)c(Cl)c1)c1ccccc1F	16µM*
COC(C(=O)Nc1ccc(S(=O)(=O)Nc2cccc3ccccc23)cc1)c1ccccc1 (stereo not drawn)	-4%
COC(=O)[C@@]1(Cc2ccc(F)cc2)[C@H]2c3cc(C(=O)N(C)C)n(Cc4ccc(Cl)c(C(F)(F)F)c4)c3C[C@H]2CN1C(=O)c1ccccc1	-15%
COc1ccc2c(c1)C(=O)[C@@H](O)[C@H](c1ccc(OC)c(Br)c1)O2	?
CC12CC(c3ccccc3O1)N(C(=O)c1ccco1)C(=O)N2c1ccccc1 (stereo not drawn)	-9%
Cc1sc2ncnc(NCC3CCCO3)c2c1C (stereo not drawn)	-15%
COC(=O)CCS(=O)(=O)c1nc(-c2ccccc2)cc(C(F)(F)F)n1	28µM*
CCC(=O)N1CCc2cc(S(=O)(=O)CCC(=O)Nc3cccc(F)c3)ccc21	-6%
CCOC(=O)c1cnn(-c2cc(C)c3ccccc3n2)c1N	-10%
c1ccn2cc(CSC3=NCCS3)nc2c1	0%
CCn1nc(C)c(/C=C/C(=O)Nc2ccc(C)cc2C)c1C	-10%
C/C(CC(=O)NC1CCCC1)=N\NC(=O)Cc1csc(N)n1	-26%
COc1ccc(S(=O)(=O)NC(CC(=O)NCCc2ccccc2)c2ccco2)cc1 (stereo not drawn)	4%
O=C(Nc1ccccc1)OCN1C(=O)c2ccccc2C1=O	-10%
COc1ccc(C(CNC(=O)C2CC(=O)N(Cc3ccc(C)cc3)C2)N(C)C)cc1 (stereo not drawn)	-10%
CCN(Cc1ccccc1)C(c1ccccn1)c1nnnn1C(C)(C)CC (stereo not drawn)	-2%
COc1cc(-c2nc(-c3cccc(C)c3)no2)cc(OC)c1OC	?
Cc1ccc(Oc2ccc(N)cc2)cc1	-24%
COc1ccc(/C=N/NC(=O)CNC(=O)c2ccc(S(=O)(=O)N3CCOCC3)cc2)c(OC)c1	-21%
COC(=O)c1ccc(Cl)c(NC(=O)CN2CCC(C)CC2)c1	-28%
O=C(/C=C/c1ccc2c(c1)OCO2)NCCSCc1cccc(Cl)c1	?
N#C/C(=C\c1ccc(N2CCCCC2)o1)C(=O)Nc1cccc(Br)c1	-18%
CCOC(=O)N1CCC(NC(=O)c2cccc3c2C(=O)N(c2ccc(OC)cc2)C3)CC1	-10%
CCOC(=O)CSc1nnc(-c2cccnc2)n1Cc1ccccc1	-10%
CNC(=S)N1N=C(c2ccc(C)cc2)CC1c1ccc(Cl)cc1 (stereo not drawn)	-10%
COC(=O)Cn1c(=O)c2c(nc(Br)n2CC(=O)OC)n(C)c1=O	1%
CCOC(=O)N1CCN(C2OC(=O)c3ccccc32)CC1 (stereo not drawn)	-3%
C=CCOC(=O)N[C@@H](c1cccs1)C(C(C)=O)C(C)=O	-4%
CCOC(=O)c1c(-n2cnnn2)sc(C)c1C	?
C=CCn1c(O)c(CN2CCOCC2)c(C)c(C#N)c1=O	-14%
Cc1cccc(OCc2nnc(SCC(=O)Nc3ccc(C)c(C)c3)o2)c1	-1%
O=C(CNS(=O)(=O)c1ccc(Br)cc1)N1CCOCC1	-1%
COc1ccc(-c2noc(CCC(N)=O)n2)cc1OC	-3%
COc1ccccc1-c1cc(C(=O)Nc2ccc(F)cc2F)no1	?
COc1ccc(S(=O)(=O)N2CCN(CCC(=O)Nc3ccc(F)cc3)CC2)cc1	-7%
CCCCN(Cc1ccccc1)c1ncnc2nc[nH]c12	-26%
CCOC(=O)N1CCC(=NNC(=O)c2ccc(O)cc2)CC1	-7%
N#C/C(=C\c1cccs1)c1nc2ccccc2[nH]1	-12%
COc1ccccc1N1CCN(C(=O)CSc2nnc(NC(=O)c3ccco3)s2)CC1	-13%
COCC(=O)NCCNc1nc2ccc(C)cc2cc1C	?
CCCCCCCCCCCCCCCCCC(=O)OC(CC(=O)O)C[N+](C)(C)C (stereo not drawn)	-6%
COC(CNc1cc(=O)oc2ccccc12)OC	-9%
COC(=O)Cn1nnc(-c2cccc(OC)c2)n1	-6%
COc1ccc(CCNC(=O)c2cc3sc(Cl)cc3n2C)cc1OC	-8%
COc1ccc(-c2nc(NC(=O)Cn3ccc(C(F)(F)F)n3)sc2C)cc1	-1%
Cc1ccc(S(=O)(=O)CCCS(=O)(=O)c2ccc(C)cc2)cc1	6%
Cc1ccc(-n2ncc3c(=O)n(CC(=O)NCc4ccco4)cnc32)cc1	-20%
N[C@@](C(=O)O)(c1ccc(P(=O)(O)O)cc1)C1CC1	-7%
Cn1c(C(=O)NCc2ccco2)cc2c(=O)[nH]c3ccccc3c21	?
COc1cccc(C(=O)Nc2cccnc2)c1	-18%
O=P(/C(=N/O)Sc1ccccc1)(N1CCOCC1)N1CCOCC1	-3%
Cc1c(Cc2ccccc2)c(=O)oc2cc(OC(=O)c3ccccc3)ccc12	-14%
O=C(CSc1nnc(Cc2cccs2)n1-c1ccc(Cl)cc1)NCc1ccc2c(c1)OCO2	-15%
CCN(CC)C(=O)CSc1nnc([C@H](CCSC)NC(=O)OC(C)(C)C)o1	-1%
COc1ccc(C(=O)NC2(C(F)(F)F)NC(=O)N(CCCc3ccccc3)C2=O)cc1OC (stereo not drawn)	-8%
O=C1C(c2ccnc3ccccc23)=C(O)c2ccccc21	-22%

# (listing goes on)
molecule	HPGD block
CC(=O)NS(=O)(=O)c1ccc(NC(=S)NC(=O)COc2ccccc2C)cc1	-7%
COc1ccc(Cc2nc(C(=O)Nc3ccccc3)cs2)cc1	-24%
Cc1ccc(S(=O)(=O)Oc2ccc(C3C4=C(CCCC4=O)N(CCC(=O)O)C4=C3C(=O)CCC4)cc2Cl)cc1	?
O=C(O)CCCn1c(=O)[nH]c2ccccc2c1=O	-26%
NNC(=O)c1ccc(COc2cccc3ccccc23)cc1	-15%
Cc1ccc(C(C)C)c(OCCCN2C(=O)NC(C)(C)C2=O)c1	1%
CC(=O)Nc1ccc(N=Cc2ccc[nH]2)cc1	-2%
C=CCn1c(SCC(=O)Nc2nc(C)cs2)nnc1C(C)NC(=O)c1ccccc1Cl (stereo not drawn)	0%
CC1=CC(C#N)(C#N)C(C#N)(C#N)C(c2ccccc2)N1 (stereo not drawn)	?
Cc1ccc(/C=C2/NC(=O)N(Cc3ccc(Br)cc3)C2=O)o1	?
COCCN1C(=O)/C(=C/c2ccc(Oc3ccc([N+](=O)[O-])cn3)c(OC)c2)SC1=Nc1ccccc1	-15%
CC(C)c1nnc(NC(=O)c2cccc(-n3cnnn3)c2)s1	-19%
O=C(CN1CCCC1)NCC1(c2ccccc2)CCOCC1	-6%
COc1ccc(N(C(=O)C(C)C)S(=O)(=O)c2cccs2)cc1	-3%
Cc1nn(Cc2ccccc2)c(Cl)c1C(=O)OCC(=O)NC(=O)NC12CC3CC(CC(C3)C1)C2	-15%
CCCSC1=C(C#N)C(c2ccccc2OCC)CC(=O)N1 (stereo not drawn)	-1%
O=C(O)C1CC1c1ccc(Br)cc1 (stereo not drawn)	-12%
Cc1cc(C)c(S(=O)(=O)N2CCCCC2)c(C)c1-n1ncnn1	3%
O=S(=O)(c1ccc2c(c1)OCCO2)N1CCN(c2cccc(Cl)c2)CC1	-13%
O=C(COC(=O)CCSc1ccc(Cl)cc1)NCc1ccccc1	-6%
Cc1noc(/C=C/N(C)C)c1S(=O)(=O)N1CCCC(C(=O)Nc2ccc3c(c2)OCO3)C1 (stereo not drawn)	?
CC(NS(=O)(=O)c1ccc(Br)cc1)C(c1cccs1)N1CCOCC1 (stereo not drawn)	-4%
COc1cccc(/C=N/N2CCN(C)CC2)c1	0%

# Bioassay records (PubChem BioAssay)
